nsP2pro inh: inhibitors of chikungunya virus nsP2 protease | Q8JUX6 | FRET peptide cleavage, nsP2pro, fluorescence 1 h | Potency, µM (series often up to 24.9 µM), without a hit: at the highest dose activity change, negative = inhibition, most hits filed as inhibitors | 31,000 compounds, 1.1% hits; active means well fitted inhibition curve with a large enough effect; inconclusive means small, poorly fitted or top-dose-only effect; inactive means no such curve, though single readings can be large or run the other way; also: nearly all actives have a fitted effect of over 60% in size; a reference inhibitor and vehicle were the controls
Target sequence (Q8JUX6 whole entry, looked up): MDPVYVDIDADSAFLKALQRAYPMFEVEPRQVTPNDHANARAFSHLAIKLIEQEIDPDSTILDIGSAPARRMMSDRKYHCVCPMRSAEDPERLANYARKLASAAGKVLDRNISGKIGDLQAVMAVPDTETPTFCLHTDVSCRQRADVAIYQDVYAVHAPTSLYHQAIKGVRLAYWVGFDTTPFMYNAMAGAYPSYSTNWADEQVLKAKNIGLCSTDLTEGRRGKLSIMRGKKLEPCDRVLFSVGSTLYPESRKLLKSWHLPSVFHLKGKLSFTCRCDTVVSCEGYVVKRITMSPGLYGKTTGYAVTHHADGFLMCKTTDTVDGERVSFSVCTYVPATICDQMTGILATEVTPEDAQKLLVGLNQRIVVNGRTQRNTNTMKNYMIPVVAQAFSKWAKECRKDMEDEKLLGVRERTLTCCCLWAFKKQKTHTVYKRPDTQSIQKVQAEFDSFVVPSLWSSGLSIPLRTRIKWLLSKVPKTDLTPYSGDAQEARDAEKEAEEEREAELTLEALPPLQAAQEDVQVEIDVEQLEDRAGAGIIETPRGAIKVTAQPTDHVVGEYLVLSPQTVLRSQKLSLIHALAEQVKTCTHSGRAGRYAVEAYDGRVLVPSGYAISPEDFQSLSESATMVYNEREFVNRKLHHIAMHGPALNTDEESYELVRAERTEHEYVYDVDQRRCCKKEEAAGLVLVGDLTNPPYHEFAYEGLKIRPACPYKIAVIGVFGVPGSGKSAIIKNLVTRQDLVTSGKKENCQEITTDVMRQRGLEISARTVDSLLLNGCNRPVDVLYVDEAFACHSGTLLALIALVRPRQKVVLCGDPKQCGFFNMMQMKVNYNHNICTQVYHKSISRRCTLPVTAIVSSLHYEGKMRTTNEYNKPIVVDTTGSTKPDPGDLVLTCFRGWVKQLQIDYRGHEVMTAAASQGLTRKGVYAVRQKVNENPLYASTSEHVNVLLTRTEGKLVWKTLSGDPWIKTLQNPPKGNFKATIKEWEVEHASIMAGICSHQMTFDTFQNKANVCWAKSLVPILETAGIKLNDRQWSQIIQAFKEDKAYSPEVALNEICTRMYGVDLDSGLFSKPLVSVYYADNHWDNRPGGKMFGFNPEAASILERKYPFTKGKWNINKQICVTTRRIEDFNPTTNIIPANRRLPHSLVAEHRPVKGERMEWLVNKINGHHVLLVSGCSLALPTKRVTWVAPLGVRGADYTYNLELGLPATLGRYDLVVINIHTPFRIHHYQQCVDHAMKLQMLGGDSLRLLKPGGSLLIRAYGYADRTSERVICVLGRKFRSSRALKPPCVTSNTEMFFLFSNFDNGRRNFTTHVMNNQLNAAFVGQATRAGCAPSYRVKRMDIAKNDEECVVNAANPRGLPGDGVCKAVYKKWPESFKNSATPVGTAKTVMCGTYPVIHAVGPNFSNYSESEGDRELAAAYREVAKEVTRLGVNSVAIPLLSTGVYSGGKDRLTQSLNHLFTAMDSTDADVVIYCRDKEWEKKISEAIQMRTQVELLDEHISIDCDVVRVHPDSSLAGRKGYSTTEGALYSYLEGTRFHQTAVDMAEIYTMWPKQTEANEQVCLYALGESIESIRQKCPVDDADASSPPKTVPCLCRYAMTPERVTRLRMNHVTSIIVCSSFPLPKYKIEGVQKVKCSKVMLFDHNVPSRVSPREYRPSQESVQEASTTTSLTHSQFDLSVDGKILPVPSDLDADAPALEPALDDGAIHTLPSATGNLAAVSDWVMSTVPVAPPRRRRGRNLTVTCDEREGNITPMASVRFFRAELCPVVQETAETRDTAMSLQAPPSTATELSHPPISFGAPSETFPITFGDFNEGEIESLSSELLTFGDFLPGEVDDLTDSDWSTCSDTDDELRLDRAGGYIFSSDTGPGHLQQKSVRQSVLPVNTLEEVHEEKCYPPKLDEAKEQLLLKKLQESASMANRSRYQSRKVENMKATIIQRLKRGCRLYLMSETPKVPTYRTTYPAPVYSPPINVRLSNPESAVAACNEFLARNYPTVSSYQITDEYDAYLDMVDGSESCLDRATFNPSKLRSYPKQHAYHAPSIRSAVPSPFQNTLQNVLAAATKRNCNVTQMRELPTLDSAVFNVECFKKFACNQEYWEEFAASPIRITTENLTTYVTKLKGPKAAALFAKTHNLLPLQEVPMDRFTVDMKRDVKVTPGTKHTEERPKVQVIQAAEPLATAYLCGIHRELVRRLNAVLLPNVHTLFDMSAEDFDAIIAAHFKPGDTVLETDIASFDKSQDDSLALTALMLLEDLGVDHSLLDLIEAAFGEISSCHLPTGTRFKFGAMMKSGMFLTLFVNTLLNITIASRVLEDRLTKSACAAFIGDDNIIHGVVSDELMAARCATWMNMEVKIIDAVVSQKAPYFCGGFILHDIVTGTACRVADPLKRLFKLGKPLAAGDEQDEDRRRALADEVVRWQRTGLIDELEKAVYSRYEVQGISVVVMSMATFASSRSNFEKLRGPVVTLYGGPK
An asterisk follows results filed as active; i = inactive; ? = inconclusive; & = joins results of further samples; [ ] = dose if it differs, or a comment. % is scaled to controls: 0 for no effect and ±100 for the full control effect; potency is read from the fitted curve at half-maximal effect. The list is partial; rates above refer to the full screens.

Start of the data: the first 2 records (preview)
no.	molecule	nsP2pro inh
1	COC(=O)C(CCSC)Nc1ncnc2onc(-c3ccc(F)cc3)c12 (stereo unspecified)	-22%
2	Cc1ccc2nc(C(NC(=O)C3CCN(CC(N)=O)CC3)C(C)C)[nH]c2c1 (stereo unspecified)	i

Results, previewed entries included:
no.	molecule	nsP2pro inh
1	COC(=O)C(CCSC)Nc1ncnc2onc(-c3ccc(F)cc3)c12 (stereo unspecified)	-22%
2	Cc1ccc2nc(C(NC(=O)C3CCN(CC(N)=O)CC3)C(C)C)[nH]c2c1 (stereo unspecified)	i
3	Cc1ccc(S(=O)(=O)C(CNC(=O)C(=O)NCCc2ccc(Cl)cc2)c2cccs2)cc1 (stereo unspecified)	-16%
4	CC(C)Oc1ccc(-c2nn([C@@H](C)c3oc4ccc(F)cc4c(=O)c3-c3cccc(F)c3)c3ncnc(N)c23)cc1F	8%
5	CCOc1ccc(Oc2ccc(OCc3cc(F)ccc3F)cc2)c(N)c1	?
6	CC1CN(C(=O)N2CCC(C(=O)NCc3ccco3)CC2)c2cc(Cl)ccc2O1 (stereo unspecified)	-15%
7	CC(C)CN(CCNC(=O)c1cn(C)c2ccc(S(=O)(=O)N3CCCC3)cc2c1=O)CC(C)C	3%
8	CCN1CCN(c2ncc3c(n2)CCN(Cc2cc(F)cc(F)c2)C3)CC1	-7%
9	Cc1cccc(N2CCN(CCCNc3ncnc4onc(-c5ccc(F)cc5)c34)CC2C)c1 (stereo unspecified)	?
10	COCc1c(C(C)C)nc(C(C)C)c(/C=C/[C@@H](O)C[C@@H](O)CC(=O)O)c1-c1ccc(F)cc1	-3%
11	CCC1CN(C(=O)Nc2cccc3c2CCCC3)c2ccccc2O1 (stereo unspecified)	-6%
12	COCCOC1CCOC2(CCN(C(=O)CCCc3ccccc3)CC2)C1 (stereo unspecified)	3%
13	CCCCc1nn2c(=O)cc(COC(=O)c3cccc(NC(=O)c4cccc(Cl)c4)c3)nc2s1	-18%
14	C[C@@H]1O[C@@H](O[C@@H]2[C@@H](O)[C@H](O[C@@H]3[C@@H](O)[C@@H](O)[C@H](O[C@H]4[C@H](OC(=O)[C@]56CCC(C)(C)C[C@H]5C5=CCC7[C@@]8(C)C[C@H](O)[C@H](O[C@@H]9O[C@H](C(=O)O)[C@@H](O)[C@H](O)[C@H]9O)[C@@](C)(CO)C8[C@H](O)C[C@@]7(C)[C@]5(C)CC6)OC[C@H](O)[C@@H]4O)O[C@H]3C)OC[C@H]2O)[C@H](O)[C@H](O)[C@H]1O (stereo partly specified)	12%[5.1 µM]
15	c1nc(NCCc2cnc[nH]2)c2cc(-c3ccc4c(c3)OCO4)ccc2n1	i
16	Cc1nccnc1CN1CCC2(CC1)CCN(Cc1ncc[nH]1)CC2CO (stereo unspecified)	i
17	O=C(OCC#CCSc1nnc(-c2cccc3ccccc23)o1)c1ccc(OC(F)(F)F)cc1	-6%
18	N#Cc1cccc(NC(=O)C2CCN(c3ncccn3)CC2)c1	3%
19	CC(C)(C)[C@]1(O)C[C@@H]2OC(=O)C[C@@]23C(=O)O[C@@H]2OC(=O)[C@@H](O)[C@]213	7%
20	CC1(CO)CCCC2(C)C1C(OC(=O)c1ccccc1)C=C1C(=O)OCC12O (stereo unspecified)	9%
21	CCCCn1cc(C(=O)c2cccc3ccccc23)c2ccccc21	-1%
22	Cc1cc2occ(CC(=O)N3CC[C@](C)(O)[C@@H](O)C3)c2cc1Cl	-6%
23	COc1ccc(C(=O)c2c(N)c(C(=O)Nc3cccc(OC)c3)c3ccccn23)cc1	?
24	CC1CCN(C(=O)CN2C(=O)NC3(CCCCC3)C2=O)CC1	1%
25	CCCCN(CC)CCNC(=O)CN1C(=O)COc2ccc(S(=O)(=O)N3CCCC3)cc21	0%
26	Cc1ccc(N2CCN(C(=O)c3cn(C)c4ccc(S(=O)(=O)N5CCCC5)cc4c3=O)CC2C)cc1 (stereo unspecified)	?
27	O=c1c(-c2ccc(O)cc2)coc2cc(O)cc(O)c12	4%
28	COc1ccc(/C=C\c2onc(C)c2S(=O)(=O)N2CCC(C(=O)Nc3cccc(OC)c3)CC2)cc1	-17%
29	CC(O)(P(=O)(O)O)P(=O)(O)O	?
30	C[C@@H]1CC2OC(=O)C3=C2C(CCC3O)[C@@]12C[C@@H](c1ccoc1)OC2=O (stereo partly specified)	?
31	CCc1c(C)nc2c(-c3cnn(-c4cc(CO)ccn4)c3)c[nH]n2c1=O	i
32	Cn1cnc2ccc(-c3ccncc3)nc2c1=O	5%[39.2 µM]
33	CCN(CC)c1ccc2cc(-c3nc4sc5c(c4c(=O)[nH]3)CCC(C(C)(C)C)C5)c(=O)oc2c1 (stereo unspecified)	-14%
34	NC(=O)[C@H]1C[C@@H](O)[C@H](O)[C@H]2[C@@H]1SC(=Nc1ccc(Cl)cc1)N2Cc1ccc(F)cc1	i
35	CC(OC(=O)c1ccc(S(C)(=O)=O)c([N+](=O)[O-])c1)C(=O)NC1C2CC3CC(C2)CC1C3 (stereo unspecified)	i
36	Cc1cccc(-n2ncc(C(=O)N3CCN(c4ccc(Cl)cc4)CC3)c2C2CCN(C(=O)OC(C)(C)C)CC2)c1	-10%
37	O=[N+]([O-])c1ccccc1CSc1nc2ncc(Br)cc2[nH]1	3%
38	CCc1ccc(NC(=O)C2=CC(c3ccc4c(c3)OCO4)=NS(=O)(=O)N2C)cc1	1%
39	CC(NC(=O)c1cccc(Nc2nc3ccccc3n3nnnc23)c1)c1ccccc1 (stereo unspecified)	-19%
40	Oc1ccc(CNc2nccc3ccccc23)c2cccnc12	i
41	N#Cc1ccc(-c2ccc(S(=O)(=O)Nc3cccc(N)n3)cc2)cc1	-27%
42	Cc1ccc(-c2ccccc2CN2CCN(C(=O)Nc3ccccc3)CC2)cc1Cl	-1%
43	Cc1cccc(NC(=O)c2cc(-c3ccc(C)c(C)c3)nc3ccccc23)c1	1%
44	CCOC(=O)c1cccc(NC(=O)CCS(=O)(=O)c2ccc3c(c2)CC(=O)N3C)c1	-29%
45	CC(C)c1ccccc1-c1ncc(F)c(NCc2ccc(-c3cccnc3)cc2)n1	2%
46	CC12CCC3c4ccc(O)cc4CCC3C1CCC2OC1OC(C(=O)O)C(O)C(O)C1O (stereo unspecified)	3%
47	COc1ccc(-c2nc(SCC(=O)Nc3ccc4c(c3)OCCO4)c(-c3ccc(C)cc3)[nH]2)cc1OC	-16%
48	CC(C)OCCCNC(=O)c1ccc2c(c1)N(Cc1c(F)cccc1Cl)C(=O)c1ccccc1S2	-10%
49	O=C(COCc1cc(-c2cccs2)on1)Nc1cccc(O)c1	-11%
50	COC[C@H]1NC(=O)CC[C@H]1C(=O)NCCC1=CCCCC1	2%
51	Cc1ccnc(NC(=S)N2CCN(c3ccc(O)cc3)CC2)c1	?
52	c1nc(NCc2ccc3c(c2)OCO3)c2cc(-c3ccc4c(c3)OCCO4)ccc2n1	i
53	Cc1ccc(S(=O)(=O)NCCc2sc3nc(-c4ccccc4)nn3c2C)cc1C	?
54	Cc1ccc(NS(=O)(=O)c2ccc3ccccc3c2)cc1C	-1%
55	CN[C@H]1C(=O)N[C@@H]2Cc3ccc(cc3)Oc3cc4cc(c3O[C@@H]3O[C@H](C(=O)O)[C@@H](O)[C@H](O)[C@H]3NC(=O)CCCCCCCCC(C)C)Oc3ccc(cc3Cl)[C@@H](O)[C@@H]3NC(=O)[C@H](NC(=O)[C@@H]4NC(=O)[C@@H](NC2=O)c2cc(cc(O)c2Cl)Oc2cc1ccc2O)c1ccc(O)c(c1)-c1c(O[C@H]2O[C@H](CO)[C@@H](O)[C@H](O)[C@@H]2O)cc(O)cc1[C@@H](C(=O)NCCCN(C)C)NC3=O	32%[activator][10 µM]
56	O=C(Nc1ccon1)c1cccn(Cc2cccc([N+](=O)[O-])c2)c1=O	-21%
57	Cc1ccccc1N(C)C1=N[S+](=O)([O-])c2ccccc21	-3%
58	Cc1cccc(C)c1NC(=O)Cn1c(=O)n(Cc2ccc(C(=O)NCc3ccco3)cc2)c(=O)c2sccc21	-22%
59	Cc1cc(C)cc(N2C(=O)CS(=O)(=O)C23C(=O)N(C)c2ccccc23)c1 (stereo unspecified)	-28%
60	O=C(O)c1cccc(S(=O)(=O)N2CCN(S(=O)(=O)c3ccc4c(c3)OCCO4)CC2)c1	i

The list goes on:
no.	molecule	nsP2pro inh
61	CCCCCCOc1ccc(C2C(=O)N(C3CCCCC3)CC(=O)N2CCCC)cc1 (stereo unspecified)	-20%
62	COc1cc(C)ccc1OCCSc1nc2ccc(NC(=O)c3cccs3)cc2s1	-9%
63	CC(CCC(=O)N1CCn2nc(Cc3ccccc3)cc2C1)N1CCCC1 (stereo unspecified)	i
64	COC[C@H]1CCCN1C(=O)C[C@@H]1O[C@H](CNS(C)(=O)=O)[C@@H](O)[C@H]1O	2%[39.2 µM]
65	C=CCn1c(=O)c2cnc(Nc3ccc(N4CCN(C)CC4)cc3)nc2n1-c1cccc(C(C)(C)O)n1	7%
66	CSCC[C@H](NC(C)=O)C(=O)O	-15%
67	COCCc1nn2c(=O)cc(COC(=O)C(c3ccccc3)c3ccccc3)nc2s1	-12%
68	Cc1nn2c(c1-c1cccnc1N1CCOCC1)N(C(=O)c1cc3ccccc3n1C)CCC2	-12%
69	CCOC(=O)c1cnc2c(C)c(Cl)ccc2c1NCCc1ccccc1	-21%
70	Cc1ccc(CNC(=O)CSC2=Nc3ccccc3N=C(c3ccc(F)cc3)C2)cc1	-16%
71	COc1cccc(N2CCN(C(=O)c3noc(-c4ccc(C)cc4)n3)CC2)c1	0%
72	COc1ccc2ccc(=O)oc2c1CC=C(C)C	-4%

Compounds 65 to 68, quoted:
no.	molecule	nsP2pro inh
65	C=CCn1c(=O)c2cnc(Nc3ccc(N4CCN(C)CC4)cc3)nc2n1-c1cccc(C(C)(C)O)n1	7%
66	CSCC[C@H](NC(C)=O)C(=O)O	-15%
67	COCCc1nn2c(=O)cc(COC(=O)C(c3ccccc3)c3ccccc3)nc2s1	-12%
68	Cc1nn2c(c1-c1cccnc1N1CCOCC1)N(C(=O)c1cc3ccccc3n1C)CCC2	-12%

(cont.)
no.	molecule	nsP2pro inh
73	Cc1ccc(-c2cc(C(=O)Nc3ccc(S(=O)(=O)N(C)C)cc3)c3ccccc3n2)cc1C	2%
74	CCOCCc1nn2c(=O)cc(COC(=O)CNC(=O)c3ccc(C(C)(C)C)cc3)nc2s1	-20%
75	O=C(CCCN1CCC(O)(c2ccc(Br)cc2)CC1)c1ccc(F)cc1	-7%
76	COc1cc(NC(=O)Cn2c(SCc3ccc(F)cc3)nc3cccnc32)cc(OC)c1	-16%
77	O[C@H]1[C@H](NCc2cnc3ccccc3c2)[C@H]2CO[C@H](O2)[C@@H]1N1CCCCC1	-3%[39.2 µM]
78	CCc1ccc(-c2nn3c(C)nnc3s2)cc1NC(=O)c1ccc(-c2cccc(Cl)c2)o1	?
79	O=C(O)CCC=CCC[C@@H]1[C@H](N2CCCCC2)[C@@H](O)C[C@@H]1OCc1ccc(-c2ccccc2)cc1	-14%
80	O=C(O)C1=C(CSc2nnnn2CS(=O)(=O)O)CS[C@@H]2[C@@H](NC(=O)[C@H](O)c3ccccc3)C(=O)N12	-23%
81	CCOC(=O)c1cccc(NC(=O)Cn2nc3c(cc2=O)CCCC3)c1	-3%
82	O=C(O)[C@H](Cc1ccc(Nc2nccc3ccncc23)cc1)NC1=C(Br)C(=O)C12CCCCC2	?
83	CCCCCCCCCCCCCCCCCCCCCC(=O)Nc1ccn([C@@H]2O[C@H](CO)[C@@H](O)[C@@H]2O)c(=O)n1	-4%[10 µM]
84	C[C@H]1[C@H](OC(=O)CCC(=O)O)O[C@@H]2O[C@@]3(C)CC[C@H]4[C@H](C)CC[C@@H]1[C@@]24OO3	-10%&-8%
85	CC(CCc1ccccc1)NC(=O)CSc1n[nH]c(-c2ccccc2)n1 (stereo unspecified)	-7%
86	COc1ccc(Cl)cc1NC(=O)CSc1nc(=O)[nH]c2c1CCC2	-15%
87	COc1ccccc1CNc1ccc(-c2nc(-c3ccncc3)no2)cc1[N+](=O)[O-]	-12%
88	COc1ccc(-c2cc(C(=O)Nc3c(C(=O)c4ccc(Cl)cc4)oc4ccccc34)no2)cc1	-16%
89	Cn1c2cc(C=O)sc2c2cnn(Cc3ccccc3F)c(=O)c21	-26%
90	CCCN(C)c1ncnc2ccc(-c3ccc4c(c3)OCO4)cc12	-2%
91	Oc1cccc2cccnc12	14%&-4%
92	Cc1ccc(C)c(CN2CCC(CNC(=O)C(CC(C)C)N3Cc4ccccc4C3=O)CC2)c1 (stereo unspecified)	-2%
93	COc1cccc(-c2ccnc3[nH]n(-c4ccccc4)c(=O)c23)c1	-13%
94	COc1cccc(CNc2ccc(S(=O)(=O)Nc3cnc4ccccc4c3)cc2)c1O	i
95	CONC(=O)Nc1ccc(-c2sc3c(c2CN(C)C)c(=O)n(-c2ccc(OC)nn2)c(=O)n3Cc2c(F)cccc2F)cc1	2%
96	CN(C)[C@H]1CCCCN(C(=O)c2cn(CCN3CCNCC3)nn2)C1	-12%
97	CC(C)CS(=O)(=O)c1oc(-c2ccc(F)cc2)nc1S(=O)(=O)c1ccccc1	?
98	Cc1ccccc1NC(=O)c1cc2sccc2n1Cc1ccc(F)cc1	-11%
99	Cc1cc(C(=O)N[C@@H]2CCC[C@@H](C(=O)NC3CC3)CC(=O)N(C)C2)nn1C	i
100	CCN1CCc2nc3sc(C(=O)Nc4cccc(Cl)c4C)c(N)c3cc2C1	5%
101	COc1ccc2[nH]c3c(c2c1)CCN(C(=O)CCC1CCCC1)C3c1ccc(F)cc1 (stereo unspecified)	-13%
102	O=C(c1ccsc1)N1CCC2(CC1)CN(C1CCC1)CC2CO (stereo unspecified)	-3%
103	Cc1cc(C)nc(-n2nc(C)c3c2N(Cc2ccccc2)C(=O)CC3c2ccc(Cl)cc2)n1 (stereo unspecified)	-5%
104	C=C1C(=O)OC2/C=C(\CO)CC/C=C(\C=O)CC(OC(=O)CC(C)C)C12 (stereo unspecified)	?
